# From PubChem
# proKLK7 act: activators of human kallikrein-7 zymogen | P49862 | purified proKLK7, EDANS-DABCYL substrate fluorescence; 100% is mature enzyme control, 0% vehicle | activation, % at 7 µM | 370,000 compounds, 0.9% hits;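 active = activation above the mean of all tested compounds plus 3 SD, computed per campaign excluding outliers beyond control limits, cut at about 13% in these data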
# Target sequence (P49862 whole entry, looked up): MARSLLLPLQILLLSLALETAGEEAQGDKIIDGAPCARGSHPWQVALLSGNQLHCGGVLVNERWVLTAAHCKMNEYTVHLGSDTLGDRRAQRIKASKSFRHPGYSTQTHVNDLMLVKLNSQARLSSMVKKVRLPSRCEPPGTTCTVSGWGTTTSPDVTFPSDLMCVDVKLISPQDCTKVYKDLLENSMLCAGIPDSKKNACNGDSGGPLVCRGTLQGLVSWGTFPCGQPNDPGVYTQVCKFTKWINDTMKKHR
# PLC-gamma1 inh: inhibitors of human phospholipase C gamma1; P19174; purified PLC-gamma1, fluorogenic substrate, fluorescence; inhibition, % at 12.2 µM; 370,000 compounds, 0.84% hits; AID 720700; in the data active = inhibition above about 9.5%
# ASAP1 GAP inh: inhibitors of human ASAP1 ArfGAP activity; inhibition, % at 16.5 µM; Q9ULH1; ASAP1-stimulated ARF1 GTP hydrolysis, GDP FP detection; 360,000 compounds, 0.19% hits; AID 624377; in the data active = inhibition above about 25%;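 note: 0% = vehicle with enzyme and substrate and 100% = no enzyme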
# PLCb3 inh: inhibitors of human phospholipase C beta3 | Purified PLC-beta3, fluorogenic substrate, fluorescence | Q01970 | 370,000 compounds, 0.18% hits | AID 720704 | inhibition, % at 12.2 µM; in the data active = inhibition above about 11%;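 note: 0% = median of compound wells on plate and 100% = full blocker control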
# ARFGAP1 inh: inhibitors of rat ARFGAP1; Arfgap1-stimulated ARF1 GTP hydrolysis, GDP FP detection; Q62848; AID 651572; inhibition, % at 16.5 µM; 360,000 compounds, 0.26% hits;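 active = inhibition above a per-plate limit, mean inhibition of low control wells plus 3 SD, cut at about 25% in these data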;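 note: 0% = DMSO wells with enzyme and 100% = wells lacking Arfgap1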
#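 System: truncated rat Arfgap1 GAP domain / Medium: HEPES-based buffer, pH 7.5 / Also added: N-terminally truncated human ARF1-GTP substrate / Incubation: enzyme reaction 120 min at 25 °C after 20 min preincubation / Measured by: FP of antibody-bound GDP Alexa 633 tracer, ex 620/em 688 nm / Replicates: singlicate, each compound tested once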
# The depositor's hits bear a star. The list is partial; the hit share may differ from the screen's.
SMILES,proKLK7 act,PLC-gamma1 inh,ASAP1 GAP inh,PLCb3 inh,ARFGAP1 inh
c1cc(-c2nsc(-c3ccncc3)n2)ccn1,0.1,0,-1,-5,-9
Nc1cc2c(cc1Br)-c1c(C(=O)O)cccc1C2O (centres undefined),9.8,-101,-1,-140,2
N=C1C(c2nc3ccccc3s2)=C(O)CN1NC(=O)c1c[nH]c2ccccc12,-3.9,-2,16,-7,15
NCCN1C(=O)c2ccccc2C1(O)c1ccc(Cl)cc1 (centres undefined),0.0,-2,-7,0,-16
CN(C)CCNC(=O)c1cccc2[nH]c(-c3ccncc3)nc12,-17,-140,2,-164,-1
O=C(Cc1coc2cc3c(cc12)CCC3)OCc1cc(=O)n2c(n1)sc1ccccc12,-0.4,-8,6,-12,3
Cc1ccc(Cn2ccc(O)c(Cc3ccccc3)c2=O)cc1,-0.6,-2,-5,-2,10
NNC(=O)c1nc(-c2ccccc2)cc(-c2ccccc2)n1,-2.4,-18,4,-26,-15

# Full records from above. Screens in order: proKLK7 act | PLC-gamma1 inh | ASAP1 GAP inh | PLCb3 inh | ARFGAP1 inh
# Results for c1cc(-c2nsc(-c3ccncc3)n2)ccn1 → 0.1 | 0 | -1 | -5 | -9
# Results for Cc1ccc(Cn2ccc(O)c(Cc3ccccc3)c2=O)cc1 → -0.6 | -2 | -5 | -2 | 10
# Results for N=C1C(c2nc3ccccc3s2)=C(O)CN1NC(=O)c1c[nH]c2ccccc12 → -3.9 | -2 | 16 | -7 | 15
# Results for NNC(=O)c1nc(-c2ccccc2)cc(-c2ccccc2)n1 → -2.4 | -18 | 4 | -26 | -15

# 3 of the entries above in order of their number in PLCb3 inh, highest first.
Molecule | proKLK7 act | PLC-gamma1 inh | ASAP1 GAP inh | PLCb3 inh | ARFGAP1 inh
NCCN1C(=O)c2ccccc2C1(O)c1ccc(Cl)cc1 (centres undefined) | 0.0 | -2 | -7 | 0 | -16
Cc1ccc(Cn2ccc(O)c(Cc3ccccc3)c2=O)cc1 | -0.6 | -2 | -5 | -2 | 10
O=C(Cc1coc2cc3c(cc12)CCC3)OCc1cc(=O)n2c(n1)sc1ccccc12 | -0.4 | -8 | 6 | -12 | 3
